Rce1 inhib: blocks yeast Ras-converting enzyme; Q03530; AID 2563; calls only; hit rate 0.27% among 290,000; yeast membranes, quenched prenylated peptide cleavage fluorescence;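 active = fall in fluorescence gain of 50% or more versus controls, with final raw signal at or below 3038400; inconclusive = same 50% fall but final raw signal above 3038400; inactive = fall in fluorescence gain under 50%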;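 note: plate controls were neutral control wells for no effect and wells lacking membranes for full effect; tested at 10 µM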
eIF4H FP inh: inhibitors of RNA binding by human eIF4H; inhibition, % at 35 µM; eIF4H fluorescence polarization binding assay; AID 2012; Q15056; hit rate 0.94% among 290,000;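 active = 50% or more with normal probe brightness, or confirmed in later tests; inconclusive = above 50% with abnormal brightness, or retests that disagree; inactive = below 50% or failed in later tests; about a fifth of its hits are not listed in these tables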;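 note: calls also rest on retests at 20 µM and on dose response follow-up; 0% = protein and probe with vehicle and 100% = probe without protein; strong numbers were not always called active; many hits fall short of the cut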
CSC inhib: cancer stem cell inhibition. cancer stem cell-like cells viability, luminescence. inhibition, % at 7.5 µM. hit rate 1.1% among 300,000;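 active = mean at 75% or more and at least half the replicates too; inconclusive = mean and replicates disagree; tested in HMLE shEcad cells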;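 note: 0% = median of negative and 100% = median of positive control wells; the first replicate is given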
PABP FP inh: PABP-poly(A) binding inhibition; P11940; PABP-poly(A) RNA binding, fluorescence polarization; inhibition, % at 35 µM; hit rate 1% among 290,000; AID 2014;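 active = 50% or more with normal probe brightness, or confirmed in later tests; inconclusive = above 50% with abnormal brightness, or retests that disagree; inactive = below 50% or failed in later tests; about a fifth of its hits are not listed in these tables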;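 note: calls also rest on retests at 20 µM and on dose response follow-up; controls were probe without protein and protein plus probe with vehicle; some compounds called inactive have numbers as strong as hits; many hits fall short of the cut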
Target sequence (P11940 whole entry, looked up): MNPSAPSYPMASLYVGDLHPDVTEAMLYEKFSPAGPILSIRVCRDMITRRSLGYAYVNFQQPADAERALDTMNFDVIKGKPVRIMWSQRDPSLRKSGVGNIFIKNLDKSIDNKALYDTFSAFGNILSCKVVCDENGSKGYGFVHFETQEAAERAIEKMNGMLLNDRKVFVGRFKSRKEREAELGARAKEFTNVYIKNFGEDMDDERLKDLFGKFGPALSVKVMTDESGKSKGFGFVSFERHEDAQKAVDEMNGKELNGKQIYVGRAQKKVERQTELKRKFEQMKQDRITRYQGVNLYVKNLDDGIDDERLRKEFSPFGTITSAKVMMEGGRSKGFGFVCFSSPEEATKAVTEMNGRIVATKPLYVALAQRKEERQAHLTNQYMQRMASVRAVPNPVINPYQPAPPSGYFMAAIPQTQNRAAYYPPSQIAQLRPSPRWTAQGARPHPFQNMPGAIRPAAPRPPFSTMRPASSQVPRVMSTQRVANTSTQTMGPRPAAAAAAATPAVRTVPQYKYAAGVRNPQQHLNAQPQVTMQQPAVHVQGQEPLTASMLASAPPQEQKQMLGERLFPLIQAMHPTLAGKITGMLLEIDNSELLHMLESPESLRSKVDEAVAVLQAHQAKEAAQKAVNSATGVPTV
Env fusion inh: blocks HIV Env-driven cell-cell fusion; inhibition, % at 12.3 µM; AID 651610; HeLa-JRFL Env/CEM21 cell fusion, luciferase; hit rate 1.1% among 360,000;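 active = mean replicate inhibition score of at least 50 and every replicate individually at or above 50; inconclusive = only one of the two criteria met; inactive = mean below 50 and not all replicates reaching 50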;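 note: 0% = plate neutral controls and 100% = maraviroc near 300 nM; one replicate is shown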
UUG fidelity: yeast start codon fidelity modulation; activity score, % at 18.7 µM; hit rate 0.13% among 350,000; S. cerevisiae UUG-firefly luciferase reporter, luminescence/redox ratio; AID 602363;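 active = replicate mean at a twofold rise or more, about +100% in these data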;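 note: firefly luciferase made from a UUG start codon reports start codon fidelity; reporter light over untreated wells divided by growth signal over untreated wells; some hits fall short of that in this replicate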
MT1-MMP act inh: blocks activation of human MT1-MMP; P50281; HT1080 RFP-PRO-GFP cells, GFP/RFP ratio fluorescence, overnight; percent of plate control window, DMSO zero; GFP/RFP ratio change, % at 20 µM; hit rate 0.061% among 360,000; AID 651647;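 active = GFP/RFP ratio change of at least 30% with cell ATP level not reduced by more than half and red fluorescence within 50% of control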; note: strong numbers were not always called active
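system = RFP-PRO-GFP reporter HT1080 cells | dosing = 20 µM single dose, 1% DMSO | timing = overnight cell settling, then overnight compound exposure, 37 °C, 5% CO2 | read-out basis = GFP/RFP fluorescence ratio | controls = DMSO and RFP-L50D-GFP cell wells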
MT1-MMP act inh RFP: also measured in MT1-MMP act inh; calls as there; RFP signal change, %; measured here: RFP expression control read;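 0 = vehicle wells; hits needed this value within 50% of zero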
An asterisk follows results filed as active; i = inactive; ? = inconclusive; nt = no result given.

entry | smiles | Rce1 inhib | eIF4H FP inh | CSC inhib | PABP FP inh | Env fusion inh | UUG fidelity | MT1-MMP act inh | MT1-MMP act inh RFP
1 | CN(C)c1ccc(P(=O)(OCc2ccccc2)C(O)c2cccnc2)cc1 (centres undefined) | i | -11 | 0 | -5 | -22 | -10 | 5 | 8
2 | Cc1sc(NC(=O)c2ccco2)c(C(c2ccncc2)N2CCOCC2)c1C (centres undefined) | i | -14 | 11 | -12 | -45 | 3 | 2 | -10
3 | CC(=O)c1ccc(N2C(=O)CC(N3CCN(S(=O)(=O)c4cc(C)ccc4C)CC3)C2=O)cc1 (centres undefined) | nt | nt | 8 | nt | -23 | nt | -1 | 0
4 | COc1ccc(NC(=O)C(NC(=O)CNC(C)=O)c2ccc(C)cc2)cc1 (centres undefined) | i | 6 | -4 | -5 | -144 | -15 | 1 | 7
5 | COc1ccc(NC(=O)C2CC(=O)N(c3cccc(C)c3C)C2)cc1 (centres undefined) | i | -4 | 8 | 4 | -149 | -10 | 2 | 2
6 | CCc1noc(C)c1C(=O)N(CCCOC)c1c(N)n(Cc2ccccc2)c(=O)[nH]c1=O | nt | nt | 4 | nt | 4 | nt | 5 | 3
7 | CC(/C=N/Nc1ccc2nncn2n1)=C\c1ccccc1 | i | -8 | -9 | -8 | -4 | nt | 0 | -7
8 | COC(=O)c1cc(NS(=O)(=O)c2cccs2)cc(NS(=O)(=O)c2cccs2)c1 | nt | nt | nt | nt | -54 | 3 | 3 | -2
9 | CC(OC(=O)COc1ccc(C#N)cc1)C(=O)c1ccccc1 (centres undefined) | nt | nt | nt | nt | 2 | -1 | 6 | 5
10 | CC(=O)Nc1ccc(NC(=O)c2ccc(NS(=O)(=O)c3cc(C(C)(C)C)ccc3C)cc2)cc1 | i | 0 | 2 | 0 | -4 | nt | 1 | 0
11 | COc1ccc(S(=O)(=O)Nc2ccc(S(=O)(=O)NCC3CCCO3)cc2)cc1 (centres undefined) | i | -6 | -1 | -10 | -7 | 17 | -1 | -4
12 | COc1ccc(OCC(O)Cn2c(Br)nc3c2c(=O)[nH]c(=O)n3C)cc1 (centres undefined) | i | -5 | 3 | 6 | nt | 18 | 4 | 4
13 | CCN1C(=O)[C@@H]2[C@@H](c3ccc(-c4ccc(F)cc4)c(OC)c3)N3CCCC[C@@]3(C(=O)OC)[C@@H]2C1=O | nt | nt | 12 | nt | 42 | -6 | -11 | -7
14 | COc1ccc(Cn2nnc(C(=O)Nc3ccc4c(c3)OCCO4)c2N)cc1Br | i | 2 | 10 | 13 | -152 | -22 | 4 | -1
15 | CCCC(=O)n1nc(-c2ccco2)nc1N | i | 1 | -28 | 4 | nt | nt | 2 | 7
16 | [O-][n+]1cccc(C(O)c2ccccc2)c1 (centres undefined) | i | 5 | -8 | 2 | 8 | -4 | -4 | 1
17 | O=C(O)C1CCCN1c1nc(-c2ccc(Cl)c(Cl)c2)cc(C(F)(F)F)n1 (centres undefined) | nt | nt | -5 | nt | nt | -2 | 2 | -7
18 | C/C(=C\C(=O)c1ccc(Br)cc1)NCc1ccc(C)cc1 | i | -1 | 17 | 5 | nt | -17 | 1 | -12
19 | C=CCn1c(N)c(C(=O)NCC2CCCO2)c2nc3ccccc3nc21 (centres undefined) | i | -2 | -2 | 1 | nt | 8 | -4 | 3
20 | Cc1c(C(=O)N2CCCC(C)(C(=O)NS(=O)(=O)C3CC3)C2)oc2ccccc12 (centres undefined) | nt | nt | nt | nt | 17 | -19 | 10 | -3
21 | O=[N+]([O-])c1ccc(S(=O)(=O)NCC(c2cccnc2)N2CCOCC2)cc1 (centres undefined) | i | -4 | -10 | 0 | 3 | nt | 3 | 5
22 | CC(C)(C)NC(=O)C(c1ccc(F)cc1)N(Cc1ccco1)C(=O)CCC(=O)Nc1nccs1 (centres undefined) | i | 3 | nt | 1 | 8 | -34 | -3 | 0
23 | CCCC(=O)Nc1cccc(S(=O)(=O)N(C)c2ccccc2)c1 | i | 11 | -1 | -6 | 6 | 5 | 5 | 4
24 | CC(C(=O)Nc1cccnc1)n1cc([N+](=O)[O-])cn1 (centres undefined) | i | 4 | 2 | ? | 18 | nt | -4 | 0
25 | O=C(CN1C(=O)COc2ccccc21)N1CCN(c2ccccc2F)CC1 | i | 5 | -8 | 6 | nt | -29 | 6 | -1
26 | BrC(/C=N/N1CCN(Cc2ccccc2)CC1)=C/c1ccccc1 | i | -3 | 20 | 2 | 17 | -16 | -3 | -5
27 | CCN(Cc1nc2cc(Cl)ccc2c(=O)[nH]1)C(=O)c1cc2c(s1)CCCCC2 | nt | nt | nt | nt | 28 | -13 | 0 | -1
28 | CCN(CC)S(=O)(=O)c1ccccc1/C=N\O | i | 0 | 2 | 1 | nt | -19 | 4 | 6
29 | CCCCOc1ccc(CN2CCC(O)CC2)cc1 | i | -3 | 6 | 2 | -12 | -11 | -4 | -2
30 | COc1ccc(Br)cc1S(=O)(=O)n1c([N+](=O)[O-])cnc1C | i | -2 | -5 | 38 | 8 | -24 | 0 | 3
31 | COCCn1c(=O)[nH]c2cc(C(=O)NCC3CCCO3)ccc2c1=O (centres undefined) | i | -4 | 1 | -4 | -118 | nt | 0 | 0
32 | COc1ccc(CNC(=O)O[C@H]2CN(C(=O)OC(C)C)N(C(=O)OC(C)C)[C@@H]3CN(S(=O)(=O)c4ccc(C)cc4)C[C@]23O)cc1OC | nt | nt | nt | nt | -34 | -12 | 5 | 1
33 | O=C1c2ccccc2C(=O)N1CCc1csc(-c2cccc(Cl)c2)n1 | i | -9 | 8 | 2 | -24 | -19 | 5 | 2
34 | CCOc1ccc(-c2noc(CCCC(=O)NC3CCCCC3)n2)cc1OC | i | -8 | -6 | -11 | 10 | 0 | 1 | 0
35 | COc1ccc(NC(=O)C(=O)c2cn(CC(=O)N3CCOCC3)c3ccccc23)cc1OC | i | -9 | -5 | -1 | 7 | 17 | 4 | 2
36 | NC(=O)[C@@H]1CCCNc2c(F)cc([N+](=O)[O-])cc2C(=O)N[C@@H](CCC(=O)O)C(=O)N[C@@H](CO)C(=O)N1 | i | 4 | 24 | 4 | 21 | 16 | 0 | 3
37 | COc1ccc(CC2NCCC3=CC(=O)CCC32)cc1O (centres undefined) | i | nt | -11 | nt | 13 | -4 | 3 | 5
38 | NC(CCc1ccccc1)c1csc(Nc2nncc3ccccc23)n1 (centres undefined) | nt | nt | nt | nt | -6 | -12 | 0 | 2
39 | CCn1c(SCC(=O)c2cc(C)ccc2C)nc2cc(S(=O)(=O)N3CCOCC3)ccc21 | i | 4 | -10 | -6 | 5 | -3 | -2 | -7
40 | CCCc1cc(=O)oc2cc(C)cc(OCC(=O)N3CCC(C(=O)O)CC3)c12 | i | 1 | -10 | -7 | nt | -22 | 2 | 3

Pulled by structure from the list above:
entry | smiles | Rce1 inhib | eIF4H FP inh | CSC inhib | PABP FP inh | Env fusion inh | UUG fidelity | MT1-MMP act inh | MT1-MMP act inh RFP
30 | COc1ccc(Br)cc1S(=O)(=O)n1c([N+](=O)[O-])cnc1C | i | -2 | -5 | 38 | 8 | -24 | 0 | 3
23 | CCCC(=O)Nc1cccc(S(=O)(=O)N(C)c2ccccc2)c1 | i | 11 | -1 | -6 | 6 | 5 | 5 | 4
33 | O=C1c2ccccc2C(=O)N1CCc1csc(-c2cccc(Cl)c2)n1 | i | -9 | 8 | 2 | -24 | -19 | 5 | 2
25 | O=C(CN1C(=O)COc2ccccc21)N1CCN(c2ccccc2F)CC1 | i | 5 | -8 | 6 | nt | -29 | 6 | -1
39 | CCn1c(SCC(=O)c2cc(C)ccc2C)nc2cc(S(=O)(=O)N3CCOCC3)ccc21 | i | 4 | -10 | -6 | 5 | -3 | -2 | -7
24 | CC(C(=O)Nc1cccnc1)n1cc([N+](=O)[O-])cn1 (centres undefined) | i | 4 | 2 | ? | 18 | nt | -4 | 0

A few values from above:
cpd 29 | MT1-MMP act inh = -4
cpd 21 | PABP FP inh = 0
cpd 36 | eIF4H FP inh = 4
cpd 35 | CSC inhib = -5
cpd 38 | UUG fidelity = -12
cpd 27 | UUG fidelity = -13
cpd 33 | CSC inhib = 8

Of the compounds above, these contain a tert-butyl group.
entry | smiles | Rce1 inhib | eIF4H FP inh | CSC inhib | PABP FP inh | Env fusion inh | UUG fidelity | MT1-MMP act inh | MT1-MMP act inh RFP
10 | CC(=O)Nc1ccc(NC(=O)c2ccc(NS(=O)(=O)c3cc(C(C)(C)C)ccc3C)cc2)cc1 | i | 0 | 2 | 0 | -4 | nt | 1 | 0
22 | CC(C)(C)NC(=O)C(c1ccc(F)cc1)N(Cc1ccco1)C(=O)CCC(=O)Nc1nccs1 (centres undefined) | i | 3 | nt | 1 | 8 | -34 | -3 | 0

(more compounds)
entry | smiles | Rce1 inhib | eIF4H FP inh | CSC inhib | PABP FP inh | Env fusion inh | UUG fidelity | MT1-MMP act inh | MT1-MMP act inh RFP
41 | COc1ccc(NC(=O)C2CCCN2S(=O)(=O)c2ccc(Cl)cc2)cc1 (centres undefined) | i | -10 | 3 | 2 | 4 | -6 | 0 | 1
42 | Cc1nc2ccccn2c1C(=O)NNC(=S)Nc1ccccc1 | i | -1 | -13 | 4 | -14 | nt | 1 | 1
43 | Cc1cc(C(=O)CN2C(=O)NC(C)(c3ccccc3)C2=O)c(C)n1CC1CCCO1 (centres undefined) | i | 13 | nt | 12 | nt | nt | 1 | 4
44 | O=C(CSc1nnc(CCCOc2ccc(Cl)cc2Cl)o1)Nc1ccc(C(=O)O)cc1 | i | 2 | 9 | 2 | 16 | -23 | 2 | 5
45 | O=C(NCc1ccccc1Cl)C1CCCN(S(=O)(=O)c2cnc[nH]2)C1 (centres undefined) | i | -4 | -10 | 8 | -5 | -22 | -3 | 6
46 | Cc1c(Cl)cccc1NC(=S)NC(=O)c1ccccc1 | nt | nt | nt | nt | -4 | 10 | 2 | 1
47 | CCCCCCC1CC(=CN(C)C)C(=O)O1 (centres undefined) | nt | nt | nt | nt | -6 | -16 | -5 | -2
48 | Cn1ccnc1CC(O)(c1ccccc1)c1ccccc1 | i | -2 | -8 | -9 | -15 | -8 | -3 | -3
49 | COc1cc(NS(=O)(=O)c2ccc(NC(=S)NC(=O)c3ccco3)cc2)nc(OC)n1 | i | -2 | -7 | 2 | 2 | -10 | 3 | -1
50 | CCOC(=O)COc1cc(OCC(=O)OCC)c2c(=O)cc(-c3ccccc3)oc2c1 | i | -4 | nt | 9 | 26 | 2 | 4 | 0
51 | O=C(O)c1ccc(NS(=O)(=O)c2cc(C(=O)O)ccc2Br)cc1 | i | 3 | -3 | 2 | nt | -4 | 5 | 3
52 | O=C(NC(Cc1ccccc1)C(=O)O)OCC1c2ccccc2-c2ccccc21 (centres undefined) | i | -12 | nt | -5 | 7 | -15 | 1 | 4
53 | CNS(=O)(=O)c1cc(C(=O)OCC(=O)NC2CCCc3ccccc32)ccc1Cl (centres undefined) | i | 11 | -2 | -1 | nt | -13 | 0 | 5
54 | COC(=O)c1ccc(COc2ncnc3sccc23)cc1 | i | -4 | -3 | -9 | -8 | -19 | -1 | 1
55 | Cc1ccc(N=Nc2c(C)[nH]n(-c3ccccc3)c2=O)cc1 | i | -1 | 25 | -8 | 13 | nt | 6 | -1
56 | Cc1onc(-c2c(F)cccc2Cl)c1C(=O)Nc1nnc(C2CC2)s1 | i | 2 | 4 | -1 | nt | -2 | 3 | 2
57 | Cc1ccc(C)c(NC(=O)C(c2ccccc2)N2CCOCC2)c1 (centres undefined) | i | 0 | nt | -1 | 6 | nt | 0 | 4
58 | CC(C)NS(=O)(=O)c1ccc(OCC(=O)N2CCN(c3ccccc3)CC2)cc1 | i | -8 | 9 | -2 | 37 | -5 | 3 | 0
59 | Cc1cccc(Cl)c1NC(=O)N1CCCN(c2ncccc2[N+](=O)[O-])CC1 | i | 27 | -6 | 38 | 8 | -16 | -1 | 0

Compound activity: PubChem BioAssay, several laboratories

These rows are one share of the data (hit frequency here may not be typical).
